Assay outcomes from PubChem BioAssay.
DUX4 txn inh – blocks DUX4-driven transcriptional activation | activity change, negative = inhibition, % (test concentration not listed) | 37,000 tested, 0.8% active | 293T-iDUX4 ZSCAN4-Gaussia luciferase reporter, 24 h; stronger effect = lower value | AID 1224904;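 active = -10% or lower and over 25 points stronger than a control reporter; inconclusive = -10% or lower with a smaller gap; inactive = above -10%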;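 note: 0% = median of neutral control wells and -100% = median of positive control wells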
DUX4 txn inh difference – second read-out of DUX4 txn inh, no call of its own (marks repeat the call); Gaussia minus Italica difference, %; measured here: selective DUX4 reporter inhibition;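 worked out from the two reporters; negative = selective loss of the DUX4 reporter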
DUX4 txn inh control – further read-out of DUX4 txn inh, marked with its call; activity change, negative = inhibition, %; measured here: Italica tet-on control reporter;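 0 = neutral control and -100 = positive control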
An asterisk follows results filed as active; ? = inconclusive; . = not tested or not shown. Not all compounds are listed; count on the stated rates, not on these rows.

DUX4 txn inh	DUX4 txn inh difference	DUX4 txn inh control	compound
1.5	14.1	-12.6	COc1ccccc1NC(=O)N1CCCCN2[C@H](C1)[C@H](c1ccc(-c3cccc(F)c3)cc1)[C@@H]2CO
-1.3	0.0	-1.3	C/C=C/c1cnc2c(c1)C(=O)N([C@H](C)CO)C[C@@H](C)[C@H](CN(C)C(=O)Nc1cccc(OC)c1)O2
9.3	3.5	5.8	C[C@H](CO)N1C[C@H](C)[C@@H](CN(C)S(=O)(=O)c2cn(C)cn2)Oc2c(NC(=O)C3CCOCC3)cccc2C1=O
-9.8	-1.2	-8.5	O=C(C[C@H]1CC[C@H]2[C@@H](COC[C@@H](O)CN2S(=O)(=O)c2ccccc2)O1)NCc1ccc(-c2ccccc2)cc1
?	.	.	CC(C)CC#Cc1ccc([C@H]2[C@H](CO)N3C(=O)CN(C(=O)Nc4ccc(F)cc4)C[C@@H]23)cc1
1.5	-4.7	6.1	COCC(=O)N1CC2(C1)[C@H](c1ccc(-c3ccccc3)cc1)[C@H](CO)N2C(=O)COC
-0.4	12.5	-12.9	O=C1CCCCn2nncc2COC[C@H](Cc2ccccc2)N1
-3.0	-10.2	7.2	COCCNC(=O)C[C@H]1C[C@@H]2c3cc(NC(=O)CN(C)C)ccc3O[C@@H]2[C@@H](CO)O1
?	-8.8	6.3	CO[C@H]1CN(C)C(=O)c2cc(NC(=O)Nc3ccc(Cl)c(Cl)c3)ccc2OC[C@@H](C)NC[C@@H]1C
-2.0	-5.4	3.4	CC(C)[C@@H](C)NC(=O)N(C)C[C@@H]1OCc2ccccc2-c2c(n(C)c3ccccc23)C(=O)N([C@@H](C)CO)C[C@H]1C
-19.5*	-36.7*	17.2*	OC[C@H]1Nc2ccc(-c3cccc(F)c3)cc2[C@H]2[C@@H]1CCN2Cc1ccncc1
11.1	1.0	10.0	COc1ccc2c3c([nH]c2c1)[C@H](CO)N(C(C)=O)CC31CCN(C(=O)Nc2ccc(F)cc2)CC1
5.6	5.0	0.6	O=C(C[C@H]1CC[C@H]2[C@@H](COC[C@H](O)CN2C(=O)C2CC2)O1)NCc1ccccc1Cl
-2.6	7.9	-10.5	CN(C)C(=O)c1cccc(-c2ccc([C@H]3[C@@H](CO)N4CCCCN(Cc5cccnc5)C[C@H]34)cc2)c1
12.9	14.9	-2.1	CC(=O)N1CC[C@@H]2[C@@H](CO)Nc3ccc(-c4cccc(F)c4)cc3[C@@H]21
?	.	.	O=C(c1ccccc1)N1CC(=O)N2[C@H](C1)[C@H](c1ccc(/C=C/c3ccccc3)cc1)[C@@H]2CO
0.6	0.6	0.1	C[C@H]1CN([C@@H](C)CO)C(=O)c2cccc(NC(=O)C3CCCCC3)c2O[C@H]1CN(C)Cc1ccc(C(=O)Nc2ccccc2N)cc1
0.5	0.3	0.2	CCN(C[C@@H]1N[C@@H](CO)[C@@H]1c1ccc(-c2cccc(C#N)c2)cc1)C(=O)COC
9.0	10.2	-1.3	CC=Cc1ccc2n(c1=O)C[C@H]1[C@H](CO)[C@@H](C(=O)NCC3CC3)N(C(=O)CC3CC3)[C@@H]21 (mixture of isomers)
-3.4	-0.6	-2.8	C[C@H](CO)N1C[C@H](C)[C@H](CN(C)C(=O)OCc2ccccc2)OCc2cnnn2CCCC1=O
-4.0	-2.6	-1.4	CO[C@@H]1CN(C)C(=O)c2ccc(NS(C)(=O)=O)cc2OC[C@@H](C)N(C(=O)c2ccc3c(c2)OCO3)C[C@@H]1C
-7.0	-12.5	5.5	CCC(=O)Nc1ccc2c(c1)OC[C@@H](C)N(Cc1ccccc1)C[C@H](C)[C@H](OC)CN(C)C2=O
-9.6	-5.9	-3.8	CCCNC(=O)C[C@H]1C[C@H]2c3cc(NC(=O)Nc4ccc(F)cc4)ccc3O[C@H]2[C@@H](CO)O1
9.1	9.2	-0.1	C[C@@H](O)C#Cc1ccc([C@@H]2[C@H](CO)N3CCCCN(C(=O)c4ccncc4)C[C@@H]23)cc1
3.5	0.0	3.5	COc1ccc(-c2ccc([C@@H]3[C@@H](C#N)N(C(=O)c4cccc(F)c4)[C@H]3CO)cc2)cc1
9.7	7.3	2.4	COc1ccc2c3c([nH]c2c1)[C@@H](CO)N(C(C)=O)CC31CN(C(=O)CN2CCOCC2)C1
-1.6	-1.5	0.0	CN1C[C@H]2[C@@H](c3ccccc31)[C@@H](CO)N2C(=O)Nc1ccc(F)cc1
2.9	-1.0	3.9	CCCNC(=O)C[C@H]1CC[C@@H]2[C@H](COC[C@H](O)CN2CC2CCCCC2)O1
13.1	12.0	1.1	CCC(=O)N1[C@@H](CO)[C@@H](c2ccc(-c3ccccc3OC)cc2)C12CN(C(C)=O)C2
-3.5	-2.6	-0.9	COc1ccc(NC(=O)N(C)C[C@H]2Oc3c(NC(=O)CCCCCC(=O)Nc4ccccc4N)cccc3C(=O)N([C@@H](C)CO)C[C@@H]2C)cc1
5.6	12.5	-7.0	COc1cccc(-c2ccc3c(c2)[C@H]2[C@H](CCN2S(=O)(=O)C2=NC(C)C=N2)[C@@H](CO)N3C)c1 (stereo partly specified)
-3.5	-4.3	0.7	COc1ccc(S(=O)(=O)N(C)C[C@H]2Oc3c(NC(=O)c4nc5ccccc5s4)cccc3C(=O)N([C@H](C)CO)C[C@@H]2C)cc1
8.2	-14.7	22.9	Cc1ccccc1S(=O)(=O)N1CC[C@H]2[C@H](CO)Nc3ccc(-c4ccc(C#N)cc4)cc3[C@H]21
-1.4	2.4	-3.9	O=C(C[C@H]1CC[C@@H]2[C@H](COC[C@@H](O)CN2S(=O)(=O)c2cccc(Cl)c2)O1)N1CCOCC1
-66.6*	-28.7*	-37.8*	COc1ccc2c3c([nH]c2c1)[C@H](CO)N(Cc1cccc(Cl)c1)CC31CCN(C(C)=O)CC1
-5.2	-10.7	5.5	COc1cccc(-c2ccc3n(c2=O)C[C@H]2[C@H](CO)[C@@H](C(=O)NCC4CC4)N(C)[C@@H]32)c1
1.0	-1.9	2.8	C/C=C/c1ccc([C@@H]2[C@@H](CN(C)C(=O)CC)N(S(C)(=O)=O)[C@H]2CO)cc1
0.6	-1.2	1.8	O=C(NC1CCCC1)N[C@@H]1C=C[C@H](CC(=O)N2CCOCC2)O[C@@H]1CO
2.8	-1.3	4.1	Cc1noc(C)c1NC(=O)Nc1ccc2c(c1)CC(=O)N([C@@H](C)CO)C[C@@H](C)[C@@H](CN(C)Cc1ccc(C(F)(F)F)cc1)O2
-1.8	-0.8	-0.9	N#C[C@@H]1[C@@H](c2ccc(C#CC3CC3)cc2)[C@H](CO)N1S(=O)(=O)c1ccccc1
?	.	.	O=C(C[C@@H]1CC[C@@H]2[C@H](COC[C@H](O)CN2S(=O)(=O)c2ccccc2)O1)NCc1ccc(-c2ccccc2)cc1
19.9	10.6	9.2	C/C=C/c1ccccc1[C@H]1[C@@H](CO)N(C(=O)CN2CCOCC2)[C@H]1C#N
3.2	4.3	-1.0	C[C@@H]1CCCCO[C@H](CN(C)Cc2ccncc2)[C@H](C)CN([C@H](C)CO)C(=O)c2cc(NS(=O)(=O)c3ccc(Cl)cc3)ccc2O1
5.3	4.4	0.9	CN(C)CC#Cc1ccc([C@@H]2[C@@H](CO)N3C(=O)CN(C(=O)c4ccccc4)C[C@@H]23)cc1
3.5	4.3	-0.8	CN1[C@@H]2c3ccc(-c4ccncc4)c(=O)n3C[C@@H]2[C@@H](CO)[C@@H]1C(=O)N1CCc2ccccc2C1
0.6	-6.6	7.2	C[C@H](CO)N1C[C@H](C)[C@@H](CN(C)S(=O)(=O)c2cccc(C#N)c2)OCc2cn(nn2)CCCC1=O
5.5	10.4	-4.9	COCCNC(=O)C[C@@H]1C[C@H]2c3cc(NC(=O)c4ccc5c(c4)OCO5)ccc3O[C@H]2[C@@H](CO)O1
?	.	.	O=C(C[C@H]1CC[C@@H]2[C@H](COC[C@@H](O)CN2Cc2cccc(-c3ccncc3)c2)O1)N1CCN(c2ccccc2)CC1
?	.	.	CO[C@H]1CN(C)C(=O)c2cc(NC(=O)c3ccc4c(c3)OCO4)ccc2OC[C@H](C)N(CCC(F)(F)F)C[C@H]1C
2.7	1.3	1.4	CO[C@H]1CN(C)C(=O)c2cc(NS(C)(=O)=O)ccc2OC[C@@H](C)N(Cc2cncnc2)C[C@H]1C
-0.5	-0.6	0.2	O=C(Nc1cc(F)ccc1F)N1C[C@@H]2[C@H](c3ccccc31)[C@@H](CO)N2Cc1cccnc1
9.8	17.6	-7.9	C[C@@H]1CN([C@@H](C)CO)C(=O)c2ccccc2-c2ccccc2CO[C@@H]1CN(C)C(=O)Nc1ccc2c(c1)OCO2
4.1	4.4	-0.2	C[C@@H]1CN([C@@H](C)CO)C(=O)CCCn2cc(nn2)CO[C@@H]1CN(C)S(=O)(=O)c1ccccc1C#N
-0.2	-2.1	1.8	CCCC(=O)Nc1ccc2c(c1)C(=O)N(C)[C@H]1CC[C@H](CC(=O)O)O[C@H]1CO2
-1.3	4.4	-5.7	CN1[C@@H]2c3ccc(-c4ccncc4)c(=O)n3C[C@H]1[C@H](CO)[C@H]2C(=O)NCCc1ccccc1
-1.8	0.7	-2.5	COC(=O)C[C@@H]1CC[C@@H]2[C@H](COC[C@@H](O)CN2S(=O)(=O)c2cn(C)cn2)O1
?	.	.	CN(C)CC(=O)Nc1ccc2c(c1)[C@@H]1C[C@H](CC(=O)NCc3ccc(-c4ccccc4)cc3)O[C@@H](CO)[C@@H]1O2
2.5	1.3	1.2	CCCNC(=O)N1[C@H](CO)[C@H](c2ccc(C3=CCCC3)cc2)[C@@H]1CNC(=O)CC
-1.6	-0.9	-0.7	C[C@H]1CN([C@@H](C)CO)C(=O)Cc2cc(NS(C)(=O)=O)ccc2O[C@H]1CN(C)Cc1ccc(C(F)(F)F)cc1
-1.9	0.2	-2.1	C[C@H]1CN([C@@H](C)CO)C(=O)c2cccc(NC(=O)Nc3ccc(F)cc3)c2O[C@H]1CN(C)Cc1ccc(-c2ccccc2)cc1

(more compounds)
DUX4 txn inh	DUX4 txn inh difference	DUX4 txn inh control	compound
0.1	1.9	-1.8	C[C@H]1CCCCO[C@@H](CN(C)C(=O)C2CCCCC2)[C@@H](C)CN([C@@H](C)CO)C(=O)c2cc(NC(=O)c3ccncc3)ccc2O1
5.0	-2.3	7.3	O=C(C[C@H]1CC[C@H]2[C@@H](COC[C@H](O)CN2C(=O)c2ccc(F)cc2)O1)N1CCOCC1
-3.1	-8.3	5.2	CO[C@H]1CN(C)C(=O)c2cc(NC(=O)C3CCOCC3)ccc2OC[C@H](C)NC[C@H]1C
-2.1	1.4	-3.5	N#C[C@H]1[C@@H](c2ccc(C#Cc3ccc(F)cc3)cc2)[C@H](CO)N1C(=O)Nc1ccc(F)cc1
-2.6	-5.9	3.3	Cc1cc(C(=O)Nc2cccc3c2O[C@H](CN(C)C)[C@@H](C)CN([C@H](C)CO)C3=O)n(C)n1
1.2	2.7	-1.5	Cc1cccc(-c2ccc([C@H]3[C@@H](CO)N4C(=O)CN(C(=O)NC5CCCCC5)C[C@@H]34)cc2)c1
-0.5	-1.2	0.7	CCN1[C@H](C(=O)NCc2ccccc2)[C@@H](CO)[C@@H]2Cn3c(ccc(-c4ccncc4)c3=O)[C@@H]21
-73.8*	-25.5*	-48.3*	COc1ccc2c3c([nH]c2c1)[C@H](CO)N(Cc1cc(F)ccc1F)CC31CN(C(=O)C2CCC2)C1
-0.5	0.2	-0.7	C[C@@H]1CN([C@H](C)CO)C(=O)CCCn2nncc2CO[C@H]1CN(C)C(=O)Cc1ccccc1
-5.2	-7.9	2.7	COc1ccccc1S(=O)(=O)N(C)C[C@@H]1Oc2ncc(-c3ccc(C)cc3)cc2C(=O)N([C@H](C)CO)C[C@@H]1C
0.5	0.8	-0.3	C[C@@H]1CN([C@H](C)CO)C(=O)c2cccc(NS(=O)(=O)c3cn(C)cn3)c2O[C@@H]1CN(C)Cc1ccc(Oc2ccccc2)cc1
-0.1	0.2	-0.3	COc1ccc(NC(=O)Nc2ccc3c(c2)C(=O)N([C@@H](C)CO)C[C@@H](C)[C@@H](CN(C)C(=O)NC2CCCCC2)OCCCC[C@@H](C)O3)cc1
2.5	14.3	-11.8	COc1ccc2c3c(n(C)c2c1)[C@H](CO)N(C)CC31CCN(S(=O)(=O)c2cccc(F)c2)CC1
-2.6	-3.3	0.7	C[C@@H]1CN([C@@H](C)CO)C(=O)c2cc(Br)cnc2O[C@H]1CN(C)C(=O)c1cccc(F)c1
-7.4	2.1	-9.5	C[C@@H]1CN([C@H](C)CO)C(=O)c2c(c3ccccc3n2C)-c2ccccc2CO[C@H]1CN(C)C(=O)[C@H](Cc1ccccc1)N(C)C
2.8	-1.2	4.0	C[C@@H]1CN([C@H](C)CO)C(=O)c2cc(NC(=O)C3CCCCC3)ccc2O[C@@H](C)CCCCO[C@@H]1CN(C)C(=O)c1ccccc1
